From PubChem BioAssay
LANA-H2B inh: blocks KSHV LANA binding to histone H2A/H2B | inhibition, % (test concentration not listed) | cell-free LANA-H2A/H2B peptide, fluorescence polarization | 0.6% of 320,000 active | Q9QR71 | AID 2629; in the data active = inhibition mostly above about 10%, no sharp cut-off; inactive = mostly below about 6.7%;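 also: stock transfer was 7.5 nL into about 10 µL; 0% = median of vehicle wells and 100% = median of positive control wells; one replicate is shown; the record names a cut of 25% in any replicate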
Beta2AR agonist: human beta-2 adrenergic receptor agonism by FAP | P07550 | Am2.2-beta2AR cells, FAP receptor internalization, flow cytometry; reference of the scale not given here | response, % (test concentration not listed) | 0.43% of 340,000 active | AID 504454;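 active = response above a set limit, near 3 SD of response in nonfluorescent compounds, cut at about 42% in these data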;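 also: stock transfer was 100 nL into about 11 µL; a reference agonist was the positive control; negative values mostly stem from fluorescent compounds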
Target sequence (P07550 whole entry, looked up): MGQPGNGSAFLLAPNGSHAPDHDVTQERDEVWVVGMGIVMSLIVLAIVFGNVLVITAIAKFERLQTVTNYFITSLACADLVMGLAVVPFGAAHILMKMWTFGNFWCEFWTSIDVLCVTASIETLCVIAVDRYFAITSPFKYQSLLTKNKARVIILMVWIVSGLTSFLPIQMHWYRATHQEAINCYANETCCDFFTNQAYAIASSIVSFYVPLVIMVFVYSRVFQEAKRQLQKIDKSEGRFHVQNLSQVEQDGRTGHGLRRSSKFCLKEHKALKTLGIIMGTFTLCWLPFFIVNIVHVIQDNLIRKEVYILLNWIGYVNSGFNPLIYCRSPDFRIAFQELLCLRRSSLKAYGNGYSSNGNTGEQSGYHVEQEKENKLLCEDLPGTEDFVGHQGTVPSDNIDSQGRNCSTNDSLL
Beta apoptosis: blocks beta cell apoptosis. INS-1E cytokine-induced death, ATP luminescence, 48 h; percent of positive-control rescue, neutral wells zero. protection from apoptosis, % (test concentration not listed). 0.8% of 300,000 active;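 active = all replicates at 75% or more, or half of them and the mean; inconclusive = half reach 75% but not the mean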;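 also: 0% = cytokine-treated negative control wells and 100% = positive control rescue; higher means more ATP so stronger rescue from cytokine killing; wells of about 40 µL received 100 nL stock; the first replicate is given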
Calb FLC: affects C. albicans growth with fluconazole | C. albicans CaCi-2 (fluconazole-resistant clinical isolate) + fluconazole, Alamar Blue growth, 48 h | growth inhibition, % (no concentration beside the values) | 0.57% of 300,000 active | AID 1979;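 active = most replicates above 75%; inconclusive = exactly half above 75%; inactive = most below 75%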;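 also: all wells also contain fluconazole at 8 µg/ml as a sub-toxic cotreatment; 0% = median of DMSO wells and 100% = median of geldanamycin control wells; wells of about 8 µL received 7.5 nL stock; the first replicate is given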
RanGTP-Imp inh: disruptors of Ran-importin-beta complex formation – biochemical, FRET, CFP-Ran, YFP-importin-beta, homogeneous, primary screen; 1.1% of 300,000 active; cell-free CFP-Ran/YFP-importin-beta FRET ratio; inhibition, % (concentration not given with the values);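 active = most replicates above 15%; inconclusive = exactly half above 15%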;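 also: 0% = DMSO wells and 100% = Ran loaded with GDP instead of GTP; wells of about 40 µL received 100 nL stock; the first replicate is given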
UCH37 DUB inh: inhibitors of human deubiquitinating enzyme UCH37; Q9Y5K5; 0.33% of 330,000 active; inhibition, % (concentration not given with the values); purified proteasome/UCH37, Ub-AMC cleavage fluorescence;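 active = mean of two replicates above 20%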;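 also: 0% = compound-free wells with enzyme and 100% = wells lacking proteasome; stock transfer was 100 nL into about 20 µL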
Target sequence (Q9Y5K5 whole entry, looked up): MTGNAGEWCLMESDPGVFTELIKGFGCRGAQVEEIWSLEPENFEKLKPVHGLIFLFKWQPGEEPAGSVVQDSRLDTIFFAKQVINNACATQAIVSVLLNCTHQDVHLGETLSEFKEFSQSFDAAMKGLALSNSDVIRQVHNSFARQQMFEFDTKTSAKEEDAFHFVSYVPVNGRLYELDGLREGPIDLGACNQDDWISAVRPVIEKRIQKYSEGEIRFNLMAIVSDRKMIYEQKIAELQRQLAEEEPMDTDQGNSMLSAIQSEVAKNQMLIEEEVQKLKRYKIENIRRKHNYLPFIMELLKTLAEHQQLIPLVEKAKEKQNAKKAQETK
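System: Proteasome-associated human UCH37 deubiquitinase; Input: 0.15 nM proteasome in added enzyme buffer; Also added: Ub-AMC substrate from 1 µM stock; Incubation: 30 min compound-proteasome preincubation then 25 min substrate reaction, room temperature; Detection: fluorescence, ex 355 nm, em 460 nm; Read-out: % inhibition of Ub-AMC cleavage fluorescence; Benchmarks: no-proteasome and no-compound wells.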
A1 inh: inhibitors of the anti-apoptotic protein A1, read as caspase activation; MEF A1-2A-BIM cells, Caspase-Glo 3/7 luminescence, 3 h; percent of clofoctol response, vehicle zero; caspase activation, % (concentration not given with the values); 0.066% of 330,000 active; AID 2462;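 active = over half of replicate activation scores above 10%, or exactly half above 10 with the replicate mean above 10; inconclusive = replicate mean below 10 yet half the replicates above 10; inactive = over half of replicates below 10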;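 also: wells of about 30 µL received 50 nL stock; many hits fall short of the cut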
T cruzi repl: T. cruzi replication inhibition. AID 1885. inhibition, % (test concentration not listed). T. cruzi beta-gal in NIH3T3, luminescence, 90 h. 1.4% of 300,000 active;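 active = mean inhibition across valid replicates above about 55%, limit read from the data; inconclusive = mean below that limit but half or more replicates reach it; inactive = mean below it, under half of replicates reach it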;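 also: signal also drops with host cell toxicity which is not excluded here; 0% = plate median of DMSO wells and 100% = zero luminescence signal; higher percent means less beta-gal luminescence so fewer parasites; stock transfer was 50 nL into about 50 µL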
Numbers without * were called inactive; i = inactive; ? = inconclusive; nt = no result given.

SMILES	LANA-H2B inh	Beta2AR agonist	Beta apoptosis	Calb FLC	RanGTP-Imp inh	UCH37 DUB inh	A1 inh	T cruzi repl
CCN(CC)S(=O)(=O)c1cccc(NC(=O)COC(=O)c2n[nH]c(=O)c3ccccc23)c1	3.9	-3	-4	6	-0.5	0.2	-0.2	-6
FC(F)(F)c1cc(-c2cccs2)nc(-n2cc(Br)cn2)n1	2.8	15	-2	4	1.0	-66	-0.5	22
COc1ccccc1NC(C)C(=O)Nc1ccc(C(C)=O)cc1 (stereo not given)	-2.6	1	-5	6	2.9	-0.2	-1.1	2
Cc1ccc(NS(=O)(=O)c2cccs2)c(C)c1	1.1	2	0	-3	4.9	6.6	-0.9	-8
CC1(C)Cc2c(sc3nnn(CC(=O)Nc4ccccc4)c(=O)c23)CO1	3.8	-9	0	2	2.2	3.7	0.0	2
CSc1nc2nccc(-c3ccc(Oc4ccccc4)cc3)n2n1	3.5	-18	-7	nt	nt	-3.6	0.0	nt
CC(NC1CCCCC1)C(=O)NN=C(c1ccccc1)c1ccccc1 (stereo not given)	130*	10	6	5	4.3	nt	-0.1	11
CC(C)N(Cc1ccccc1)C(=O)COC(=O)C1CCN(S(=O)(=O)c2ccc3c(c2)OCCO3)CC1	6.3	14	-7	-5	-2.7	5.5	-0.2	-4
Cc1ccccc1CN1C(=O)c2ccccc2S1(=O)=O	-2.2	-2	-3	-11	1.5	1.3	-0.1	-13
CC1CCCCN1C(=O)C1CCCN(S(=O)(=O)c2cccc3nsnc23)C1 (stereo not given)	-2.5	5	-4	-11	0.3	5.6	-0.7	7
CCN(CC)C(=O)c1sc(NC(=O)Cc2cccs2)c(C#N)c1C	-7.6	2	-3	1	4.1	4.5	0.6	-16
COc1ccc(-n2nnc3c(=O)n(Cc4cc(C)ccc4C)cnc32)cc1	2.2	-4	-5	-15	-3.0	1.6	1.6	4
CCN(CC)C(=O)Cn1cc(S(=O)(=O)CC(=O)Nc2ccc(F)cc2)c2ccccc21	-7.5	2	0	-16	-1.0	-1.3	0.3	-6
CSc1ccc(/C=N/NC(=O)COc2ccc(Br)cc2Cl)cc1	-1.0	-5	-6	-2	-0.1	nt	0.0	-2
COC(=O)C(Cc1ccc(O)cc1)NC(=O)c1ccc2c(c1)OCCO2 (stereo not given)	0.0	11	nt	0	2.1	-0.2	-2.1	-9
O=C(O)/C=C/C(=O)N(Cc1ccccc1)Cc1ccco1	-2.3	0	-6	0	0.8	3.3	-0.1	-20
Cn1c(N)c(C(=O)COC(=O)c2cc(-c3ccccc3)nc3ccccc23)c(=O)n(C)c1=O	-3.9	nt	27	71	-4.4	-0.9	-0.2	33
Cc1ccc(C(=O)NCC(=O)OCC(=O)c2ccc3c(c2)NC(=O)CO3)cc1	-0.2	-4	-4	15	-1.4	4.4	0.3	-8
O=C1NC2(CCCCCC2)C(=O)N1Cc1ccc(F)cc1Cl	-6.4	-4	4	-9	3.6	4.1	0.3	-7
COC(=O)c1ccc(C(=O)OC)c(NC(=O)CN2CCC(C)CC2)c1	1.1	-7	-4	?	5.7	2.1	0.1	19
O=c1[nH]c2ccccc2n1CCC1CCCCC1	-4.0	-11	-3	-27	7.6	0.3	1.0	27
O=C(CSc1ccccn1)Nc1nc2ccc(Br)cc2s1	-4.4	-3	-4	-13	10	-0.2	-0.8	15
O=C(O)CN1C(=O)/C(=C\c2ccccc2OCc2ccc(Cl)cc2Cl)SC1=S	-2.5	0	-2	30	-3.2	26*	-0.5	1
CC1CC1C(=O)N(C)CC(=O)Nc1ccc(Cl)c(C(F)(F)F)c1 (stereo not given)	-1.2	-2	0	5	nt	1.8	1.6	-4
Cc1ccc(OCC(=O)Nc2nnc(S(=O)(=O)N3CCCCC3)s2)cc1	6.4	-6	0	0	3.7	2.7	-0.4	4
Cn1nccc1C(=O)OCC(=O)Nc1ccccc1Cl	nt	4	nt	1	5.1	1.6	nt	-14
C=CCc1ccc(OCCCN2CCCC(C)C2)c(OC)c1 (stereo not given)	1.7	-2	nt	-2	0.9	-0.5	0.5	30
CSc1ncc(Cl)c(C(=O)NCc2cccnc2)n1	1.8	-10	-3	0	0.0	-0.1	0.0	-2
CCOc1ccc(NC(=O)Nc2nnc(CC(=O)NCc3ccccc3)s2)cc1	6.3	7	1	-4	-3.8	3.3	-0.6	-16
Cc1nc(SCC(=O)Nc2cc(S(=O)(=O)N3CCOCC3)ccc2Cl)nc(C)c1C	4.0	-7	1	nt	nt	1.6	1.2	nt
CCOc1ccccc1CN1CCN(C2CCOCC2)CC1CCO (stereo not given)	i	12	-4	-2	-2.2	3.3	0.6	-13
CC1=NN(C(=O)c2c(Br)cnn2C)C(O)(C(F)(F)F)C1 (stereo not given)	9.4	7	4	3	-3.9	1.2	0.9	-21
CCN(CC)C(=O)CSc1nc(-c2ccccc2)cc(=O)[nH]1	-0.6	-2	-13	-9	3.4	3.9	0.9	2
O=C(O)CCC(NC(=O)c1ccc(Cl)cc1)C(=O)O (stereo not given)	6.7	-1	5	-10	-12	0.3	1.1	-7
CN(C)S(=O)(=O)c1ccc(C(=O)NNC(=O)c2ccccc2-n2cccc2)cc1	0.1	-4	-6	nt	nt	1.7	1.0	nt
CSC1=N/C(=C\c2cccc(Cl)c2)C(=O)N1N(C)C	1.2	-1	-9	-38	-4.3	7.0	-0.2	2
CC(Sc1nc(N2CCOCC2)c2c(c1C#N)CC(C)(C)OC2)C(=O)Nc1ccccc1 (stereo not given)	nt	6	nt	-28	1.3	-0.7	nt	-3
C=CCN(C(=O)CNC(=O)c1ccco1)C(C(=O)NC1CCCCC1)c1cccnc1 (stereo not given)	-3.4	0	0	3	?	2.8	0.0	-3
COc1ccc(Cl)cc1-c1csc(N)n1	1.0	-3	0	24	2.9	2.4	0.5	-6
COc1cccc(OC)c1C(=O)NCC12CC3CC(C1)CC(CNC(=O)c1c(OC)cccc1OC)(C3)C2	-1.0	-4	nt	-4	0.3	6.3	0.6	1
O=C(O)c1cc(S(=O)(=O)N2CCCCC2)ccc1Cl	-3.4	2	-3	8	7.5	0.4	0.3	-9
CC(=O)c1cccc(N(CC(=O)N2CCCCC2)S(C)(=O)=O)c1	nt	4	nt	-16	3.8	-0.1	nt	-8
COc1cc(CCC(=O)N2CCN(c3ccccc3Cl)CC2)cc(OC)c1OC	2.7	13	-2	5	1.0	-0.4	1.4	-6
COc1ccc2[nH]c(=O)c(CN(CCCN3CCOCC3)C(=O)NCc3ccccc3)cc2c1	4.1	-7	5	-1	-3.3	-21	1.2	5
COc1cc(Cl)c(C)cc1NC(=O)COC(=O)CCc1nc2ccccc2c(=O)[nH]1	-5.0	0	-7	1	4.0	0.2	0.8	-4
Cc1sc2nc(-c3cccs3)oc(=O)c2c1C	-0.8	11	0	-1	32*	-47	-6.0	-14
Cc1c(C(=O)N(C)C)c2cc(Cl)ccc2n1O	8.7	0	3	8	5.6	-0.2	0.9	-13
O=C(NCCc1nc2ccccc2[nH]1)/C(=C/c1ccc2c(c1)OCO2)NC(=O)c1ccc(Cl)cc1Cl	5.6	-8	7	20	3.4	-2.9	0.3	10
COc1cc(/C=N/Nc2nc3ccccc3[nH]2)cc(OC)c1O	4.5	-44	29	1	?	nt	-2.4	-55
CN(Cc1ccccc1)C(=O)c1ccc2c(c1)OCO2	-0.3	-7	-5	2	3.2	0.9	-0.3	4
Next part
SMILES	LANA-H2B inh	Beta2AR agonist	Beta apoptosis	Calb FLC	RanGTP-Imp inh	UCH37 DUB inh	A1 inh	T cruzi repl
CCOc1ccc(NC(=O)CN(C)C(=O)Cc2sc(C)nc2-c2ccc(F)cc2)cc1OCC	4.4	0	-7	nt	nt	3.4	0.4	nt
CCC(=O)Nc1ccc2c(c1)ncn2-c1ccccc1C	-2.1	1	-2	13	0.7	-0.4	0.5	9
C=CCn1c(SCC(=O)N(CC)C2CCS(=O)(=O)C2)nc2ccccc2c1=O (stereo not given)	3.4	-7	0	1	-6.0	1.9	-0.4	0
Fc1ccc(-c2csc(Nc3ccccn3)n2)c(F)c1	-2.3	6	5	-21	3.3	1.8	-5.9	28
Cc1cc(NC(=O)CSc2ccc(-c3nc4cc(C)c(C)cc4[nH]3)cn2)no1	0.8	4	26	-8	5.1	-5.7	-0.4	3
COC(=O)c1c(-c2cccnc2)csc1NC(=O)c1cc(C)on1	-5.2	-24	-2	0	?	1.0	-1.6	2
CCc1ccccc1NC(=O)C1CC(c2ccc(OC)cc2)=NO1 (stereo not given)	-4.4	-3	nt	-5	-0.1	1.8	-0.1	4
CCc1nnc(NC(=O)CN2CCN(C(=O)c3ccccc3)CC2)s1	-0.2	-8	-3	-4	4.9	3.2	1.0	-2
CCOc1ccc(CN(C)CC(=O)Nc2ccc([N+](=O)[O-])cc2Cl)cc1	-4.0	1	4	5	-5.5	2.7	-0.1	12
COc1ccc(CNC(=O)Nc2cccc3ccccc23)cc1	-0.7	13	-3	0	-5.9	0.1	0.2	10

Reprinted at random: 5 entries already listed.
SMILES	LANA-H2B inh	Beta2AR agonist	Beta apoptosis	Calb FLC	RanGTP-Imp inh	UCH37 DUB inh	A1 inh	T cruzi repl
CCC(=O)Nc1ccc2c(c1)ncn2-c1ccccc1C	-2.1	1	-2	13	0.7	-0.4	0.5	9
COc1ccc(CNC(=O)Nc2cccc3ccccc23)cc1	-0.7	13	-3	0	-5.9	0.1	0.2	10
COC(=O)c1c(-c2cccnc2)csc1NC(=O)c1cc(C)on1	-5.2	-24	-2	0	?	1.0	-1.6	2
CCc1ccccc1NC(=O)C1CC(c2ccc(OC)cc2)=NO1 (stereo not given)	-4.4	-3	nt	-5	-0.1	1.8	-0.1	4
CCc1nnc(NC(=O)CN2CCN(C(=O)c3ccccc3)CC2)s1	-0.2	-8	-3	-4	4.9	3.2	1.0	-2

Remaining list, next part.
SMILES	LANA-H2B inh	Beta2AR agonist	Beta apoptosis	Calb FLC	RanGTP-Imp inh	UCH37 DUB inh	A1 inh	T cruzi repl
O=C(Cc1noc2ccccc12)Nc1ccc2ccccc2c1	2.8	-19	-3	10	1.8	4.5	-0.9	-9
COc1ccc(NC(=O)CN2CCN(CC(=O)Nc3ccccc3OC)CC2)c(OC)c1	nt	24	nt	-2	-2.2	0.7	nt	-9
CN(C)CC(O)CN1C(=O)N(CN2C(=O)N(CC(O)CN(C)C)C(=O)C2(C)C)C(C)(C)C1=O (stereo not given)	3.1	-2	6	2	6.7	5.0	0.5	8
COc1cc(SC)ccc1C(=O)OCC(=O)NC1CCCC1	-2.8	-13	-7	22	0.7	3.0	1.5	-5
O=C1CC(c2ccc(Br)cc2)NC(c2ccc(Br)cc2)C1c1ccccc1 (stereo not given)	-4.1	nt	11	-11	-2.2	nt	-0.2	47

Sorted by the number under RanGTP-Imp inh (descending): some entries from above.
structure	LANA-H2B inh	Beta2AR agonist	RanGTP-Imp inh	UCH37 DUB inh
CCc1ccccc1NC(=O)C1CC(c2ccc(OC)cc2)=NO1 (stereo not given)	-4.4	-3	-0.1	1.8
CSC1=N/C(=C\c2cccc(Cl)c2)C(=O)N1N(C)C	1.2	-1	-4.3	7.0
CCOc1ccc(CN(C)CC(=O)Nc2ccc([N+](=O)[O-])cc2Cl)cc1	-4.0	1	-5.5	2.7
